Bioassay records: PubChem BioAssay, National Center for Advancing Translational Sciences (NCATS)
VDR inh = blocks the human vitamin D receptor | P11473 | VDR-SRC2-3 peptide fluorescence polarization, 2 h | Potency, µM, for inactives: max response, negative = inhibition, usual class: inhibitors | 400,000 compounds, 0.93% hits | AID 504847; active means well fitted inhibition curve with a large enough effect; inconclusive means small, poorly fitted or top-dose-only effect, or another doubt; inactive means no such curve, though single readings can be large or run the other way; further: series mostly up to about 120 µM
Target sequence (P11473 whole entry, looked up): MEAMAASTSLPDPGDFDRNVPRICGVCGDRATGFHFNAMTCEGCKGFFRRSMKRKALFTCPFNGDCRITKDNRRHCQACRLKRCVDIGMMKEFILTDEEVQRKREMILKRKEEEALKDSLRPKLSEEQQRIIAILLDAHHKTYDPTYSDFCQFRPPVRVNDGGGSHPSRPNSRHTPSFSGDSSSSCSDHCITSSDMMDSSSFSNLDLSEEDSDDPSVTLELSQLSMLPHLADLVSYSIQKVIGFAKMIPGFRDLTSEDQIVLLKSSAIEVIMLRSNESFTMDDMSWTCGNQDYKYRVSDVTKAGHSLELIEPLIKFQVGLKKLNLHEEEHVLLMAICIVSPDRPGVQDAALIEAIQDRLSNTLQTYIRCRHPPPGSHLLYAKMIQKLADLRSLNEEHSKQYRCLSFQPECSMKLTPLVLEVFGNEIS
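The screen uses fluorescence polarization to detect compounds that interfere with recruitment of the SRC2-3 coactivator peptide to VDR; plates are read after 2 h at room temperature.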
Active calls of the source: *; ? = inconclusive. On the % scale 0 is the no-effect control and ±100 the full control effect; potency means the concentration at half of the fitted maximal effect.

VDR inh | smiles
6.9% | Cc1ccc(-n2nnc3c(=O)n(CC(=O)N4CCOCC4)cnc32)cc1
-18.1% | CC(CC(=O)N1CCN(c2ccc(C(F)(F)F)cn2)CC1)n1ccnc1 (centres undefined)
3.6% | Cc1coc2c1c(C)cc1oc(=O)c(CC(=O)NCCC(=O)O)c(C)c12
-3.7% | COC(=O)N/N=C/c1cn(CC(C)COc2ccccc2)c2ccccc12 (centres undefined)
-10.0% | O=C(COC(=O)CCN1C(=O)C2CC=CCC2C1=O)NCCc1ccccc1 (centres undefined)
-19.9% | CCOc1ccc(N2C(=O)C(CC(=O)Nc3ccc(F)cc3)N(Cc3ccccn3)C2=S)cc1 (centres undefined)
-4.8% | CCOC(=O)C1(C(C)C)Oc2ccccc2C(c2ccc(OC)cc2)=C1C(=O)OC (centres undefined)
13.8% | O=c1cc(O)c(-c2cccc(C(F)(F)F)c2)c(Cl)[nH]1
1.7% | COC(=O)c1sccc1S(=O)(=O)N(CC(=O)NCc1ccccc1)c1ccc(C)c(C)c1
-2.5% | CCC(C)NC(=O)C1CCN(c2nc(OC)nc(OC)n2)CC1 (centres undefined)
35.5µM* | CCNC(=O)COc1ccc(/C=C2\COc3ccccc3C2=O)cc1OC
8.3% | CCOC(=O)C1CCN(C(=O)Cc2ccc(C)cc2)CC1
10.6% | Cc1cccc(CN2CCC(CNC(=O)Cn3ncc4c([nH]c5ccc(C)cc54)c3=O)CC2)c1
2.7% | O=S(=O)(c1ccccc1)c1nnn2c1nc(NC1CCCCC1)c1sccc12
-26.4% | Cn1c(SCC(=O)Nc2ccc3[nH]c(=O)[nH]c3c2)nnc1-c1ccc(F)cc1
-22.1% | CNS(=O)(=O)c1cc2c3c(cccc3c1)C(=O)NC2=O
-14.1% | Cc1cc(Br)cc(C=Nc2ccc(N3CCOCC3)cc2)c1O
-0.9% | CCc1ccc(-n2c(=O)c3sc4ccccc4c3n(CC(=O)NC3CCCC3)c2=O)cc1
2.1% | CSc1ccc(S(=O)(=O)NCC(=O)OCCOc2ccccc2)cc1[N+](=O)[O-]
-23.5% | O=C(NC(=S)Nc1ccccc1C(F)(F)F)c1ccccc1F
3.0% | CC(C)CN(C(=O)COC(=O)CCN1C(=O)c2ccccc2C1=O)C1CCS(=O)(=O)C1 (centres undefined)
7.4% | CCN(CC)C(=O)[C@H]1C[C@H](CC(=O)NCCCN(C)C)C(=O)N2CCc3c([nH]c4cc(CCC(=O)N(C)C)ccc34)[C@]12C
-13.9% | O=C(NC1(C(F)(F)F)C(=O)Nc2c1c(=O)[nH]c(=O)n2-c1ccccc1)c1ccccc1 (centres undefined)
-26.6% | O=C(Cc1ccc(S(=O)(=O)N2CCCC2)s1)Nc1cccc([N+](=O)[O-])c1
2.3% | Cc1[nH]c2ccccc2c1C(=O)C(=O)NC1CC(=O)N(c2ccccc2)C1 (centres undefined)
-2.4% | Cc1ccccc1NCc1nc2ccccc2n1C
35.5µM* | CCN(CC)C(=O)c1sc(NC(=O)C(C)Sc2nc(-c3ccccc3)cc(C(F)(F)F)n2)c(C(=O)OC)c1C (centres undefined)
-5.2% | O=C(NCCCN1CCOCC1)c1ccccc1NS(=O)(=O)c1cc([N+](=O)[O-])ccc1Cl
-1.0% | O=C1CCC/C=C\C[C@@H](CC(=O)N(CCO)Cc2ccccc2)C(=O)NCCO1
-13.7% | Cc1ccccc1CN(C)C(C)C(=O)Nc1ccccc1F (centres undefined)
16.6% | COc1cc2ccccc2cc1C(=O)N1CCN(c2nc3c(F)cccc3s2)CC1
-12.5% | COCC[N+]1(C)CCCCC1
5.0% | COC(=O)c1ccc2c(c1C(=O)OC)CN(S(=O)(=O)C(C)(C)C)[C@H]2CCO
-7.4% | Cc1ccc(S(=O)(=O)Nc2cc(C)cn(Cc3ccc(F)cc3)c2=O)cc1
-1.8% | O=C(/C=C/c1ccc(Cl)cc1)N(Cc1ccccc1)C1CCS(=O)(=O)C1 (centres undefined)
-16.4% | Cc1[nH]cnc1C(=O)N/N=C/c1c(Cl)cccc1Cl

Quoted from the entries so far, 3 compounds:
VDR inh | smiles
35.5µM* | CCN(CC)C(=O)c1sc(NC(=O)C(C)Sc2nc(-c3ccccc3)cc(C(F)(F)F)n2)c(C(=O)OC)c1C (centres undefined)
-5.2% | O=C(NCCCN1CCOCC1)c1ccccc1NS(=O)(=O)c1cc([N+](=O)[O-])ccc1Cl
-1.0% | O=C1CCC/C=C\C[C@@H](CC(=O)N(CCO)Cc2ccccc2)C(=O)NCCO1

More records:
VDR inh | smiles
-11.1% | CCOC(=O)C1CN(Cc2ccccc2)C(=O)C1=O (centres undefined)
-9.9% | CC(CN1CCN(C)CC1)OC(=O)c1ccc(Cl)cc1 (centres undefined)
-8.1% | C/C(=N\NC(=O)CN(c1ccccc1Br)S(C)(=O)=O)c1ccc2c(c1)OCCO2
6.0% | Cc1oncc1-c1csc(-c2ccccc2Cl)n1
0.0% | O=C1CC(C(F)(F)C(F)(F)C(F)(F)C(F)(F)F)=Nc2ccccc2N1
9.7% | Cc1cccc(NS(=O)(=O)c2ccc(C)c(C(=O)NCc3ccccn3)c2)c1
? | Cc1ccc(C(=O)CSC2=NC(N)=C(C#N)C3(CCCCC3)C2C(N)=O)cc1 (centres undefined)
-21.7% | Oc1ccccc1-c1nc2cnccn2c1Nc1ccc(Cl)cc1
6.4% | CC(C)C(NC(=O)C(c1ccccc1)c1ccccc1)c1nc2ccccc2[nH]1 (centres undefined)
-1.4% | CNC(=O)COC(=O)c1c2c(nc3ccccc13)CCC2
-9.1% | Cc1nc2c3cnn(-c4ccc(C)c(C)c4)c3ncn2n1
-16.2% | O=c1[nH]c(=S)n(C2CCCCC2)c(O)c1C=NCCN1CCOCC1
? | N#Cc1c(-c2ccccc2)nc(SCc2ccc([N+](=O)[O-])cc2)[nH]c1=O
8.6% | COC(=O)[C@@H]1CCCN1C(=O)CCc1nnc(CCC2CCCCC2)o1
-19.1% | COc1ccc(NC(=S)NC(=O)c2ccccc2Cl)cc1
5.1% | COc1ccc(OCCNC(=O)/C=C/c2ccccc2)cc1
18.0% | Cc1c(C(=O)NCCSCc2ccccc2)cccc1[N+](=O)[O-]
12.0% | COc1ccc(S(=O)(=O)NCCc2sc(-c3cccc(F)c3)nc2C)cc1
8.2% | CCC(=O)N1CCc2cc(OC)c(OC)cc2C1COc1ccc(C(=O)OC)cc1 (centres undefined)
-12.8% | O=C(Nc1nc2ccc(F)cc2s1)C1CCCO1 (centres undefined)
7.9% | O=C(Cn1nc(C(=O)O)c2ccccc2c1=O)Nc1cccc(S(=O)(=O)N2CCOCC2)c1
-3.0% | Cc1ccc(C(=O)NCC(=O)OCCCOC(=O)CNC(=O)c2ccc(C)cc2)cc1
-0.6% | CCOCCCN(C)C1CCN(C(=O)c2oc3ccccc3c2NC(=O)Cc2ccc(F)cc2)CC1
-24.0% | COc1ccc(OC)c(NC(=O)Cn2cnc3sc(C)c(S(=O)(=O)N4CCN(c5ccccc5OC)CC4)c3c2=O)c1
20µM* | O=C(/C=C/c1ccc2c(c1)OCO2)c1cccs1
17.2% | C/C(=N\NC(=O)Cc1cc(=O)[nH][nH]1)c1cccc([N+](=O)[O-])c1
18.2% | COc1ccc(-c2cc(=O)oc3cc(OCC(=O)N(C)C4CCS(=O)(=O)C4)ccc23)cc1 (centres undefined)
-7.5% | CC1=NNC(=O)C1CCC(=O)N/N=C\c1ccc(Cl)c(Cl)c1 (centres undefined)
4.9% | CCOC(=O)C1CCCN(C(=O)Cn2nc(Cc3cccnc3)c3ccccc3c2=O)C1 (centres undefined)
-3.4% | CC(C)OC(=O)c1cn(Cc2c(F)cccc2F)c2sc(-c3ccc(NC(=O)C(C)C)cc3)c(CN(C)Cc3ccccc3)c2c1=O
-0.3% | CCOC(=O)c1cnc(SCC(=O)Nc2cc(OC)cc(OC)c2)nc1N
13.1% | Cc1ccc(S(=O)(=O)N(C)CC(=O)NNC(=O)Cc2ccccc2F)cc1
-3.0% | c1coc(-c2nc3nc4ccccc4nc3n2CC2CCCO2)c1 (centres undefined)
-13.0% | CCCN(C(=O)CCc1nc(-c2ccc(C)cc2)no1)c1ccc(OCC)cc1
-4.4% | O=C(Nc1cccc(Cl)c1)NC1CC2CCC(C1)N2Cc1ccco1 (centres undefined)
-15.8% | COc1ccc(N(Cc2ccccc2)S(=O)(=O)c2cccc(C(=O)NC3=NCCS3)c2)cc1
6.6% | CN(c1ccccc1)c1cc(Br)nc(Br)c1
-2.4% | O=C(CNCc1ccccc1Cl)Nc1ccccc1N1CCCCC1
-7.4% | CC(C)(C)OC(=O)N1CCC(NC(=O)c2[nH]cnc2C(=O)Nc2ccon2)CC1
18.6% | C/C(=N\NC(=O)c1ccc([N+](=O)[O-])cc1)c1cccc([N+](=O)[O-])c1
9.9% | CC1CCC(C(C)C)[C@H](O)C1 (some centres undefined)
15.0% | Cc1cccc(C)c1NC(=O)CN(C)c1ccc(C(F)(F)F)cn1
-8.9% | COc1ccc(-c2nc(CN3CCC(C(=O)NCCN(CC(C)C)CC(C)C)CC3)c(C)o2)cc1OC
-20.3% | COc1ccc(-c2csc(NC(=O)CSCc3c(C)noc3C)n2)c(OC)c1
-10.0% | Cc1cc(Cl)ccc1NC(=O)COC(=O)CCNS(=O)(=O)c1ccccc1
15.6% | N#Cc1ccccc1CSc1nnc(-c2ccncc2)o1
-15.8% | CC(C)CN(C(=O)C1CCCO1)c1c(N)n(CC(C)C)c(=O)[nH]c1=O (centres undefined)
1.3% | CCN1CCc2c(sc(NC(=O)c3ccc(S(=O)(=O)N4CCOCC4)cc3)c2C(=O)OC)C1
0.6% | CCc1ccc(NC(=O)CSc2nc(C)c(C(=O)Nc3ccccc3)c(-c3ccc(OC)c(OC)c3)c2C#N)cc1
1.8% | O=C(CCN=C1NS(=O)(=O)c2ccccc21)OCc1cccc(Cl)c1
-7.4% | O=C(c1ccc2ccccc2c1)C1CCCN(C(=O)c2cnccn2)C1 (centres undefined)
4.8% | CC1=CN2C(=N)/C(=C/c3ccc(Sc4ccc(C)cc4)o3)C(=O)N=C2S1
-15.6% | O=S(=O)(NCCc1ccc(F)cc1)c1ccc(F)cc1Br
-24.9% | CCCc1nn2c(=O)cc(COc3ccc(NC(=O)c4ccco4)cc3)nc2s1
-5.2% | COc1cccc(-c2nc(-c3ccc(NC(=O)Cc4ccccc4OC)cc3)no2)c1
1.1% | CCOC(=O)c1ccc(NC(=O)N2CC(C)OC(C)C2)cc1 (centres undefined)
-7.0% | CCC(=O)N1CCc2cc(S(=O)(=O)CCC(=O)N3CCc4ccccc4C3)ccc21
-1.3% | CCCC(=O)O/N=C(\c1ccccc1)c1ccncc1
3.3% | Nc1nc(N)c(N=Nc2ccc(C(=O)O)cc2)c(N)n1
-0.5% | C=CCC(O)(CC=C)CNC(=O)c1ccc(OC)c(OC2CCN(C(C)=O)CC2)c1

(further entries)
VDR inh | smiles
-14.3% | CCOc1cc2[nH]c(=S)n(Cc3ccc(C(=O)NCCCOC)cc3)c(=O)c2cc1OCC
-21.8% | Cn1nnnc1SCC(=O)Nc1ccccc1C(N)=O
-5.3% | COC(=O)Cc1ccc(NC(=O)c2ccc3c(c2)C(=O)N(Cc2cccnc2)C3=O)cc1
-12.6% | Cc1c(C)c(C)c(C(=O)CCc2cccc(NC(=O)CCC(=O)O)c2)c(C)c1C
5.3% | COc1cccc(NC(=O)COc2ccc(C(=S)N3CCN(C)CC3)cc2OC)c1
5.0% | COc1ccc(S(=O)(=O)NC(CC(=O)NCc2ccc3c(c2)OCO3)c2ccco2)cc1 (centres undefined)
-2.6% | CCc1c(O)nc(SCC(=O)Nc2ccccc2OC)[nH]c1=O
12.2% | CC(C)CCC1(C)NC(=O)N(CC(=O)Nc2ccc3c(c2)OCCO3)C1=O (centres undefined)
7.7% | COc1ccc(OC)c(NC(=O)CSc2nncc3ccc(OC)c(OC)c23)c1
5.2% | N#Cc1nc(-c2ccc(COc3ccccc3)o2)oc1N1CCCCC1
-3.3% | COc1ccc(S(=O)(=O)N2CCC(n3c(C(F)(F)F)nc4cccnc43)CC2)cc1OC
-0.4% | CC(C)(C)c1[nH]nc2c1C(c1ccco1)C(C#N)=C(N)O2 (centres undefined)
3.6% | CCn1c(SCC(=O)NC2CCCCC2)nnc1-c1cc2cccc(OC)c2o1
-4.0% | Cc1ccnc(NC(=O)COC(=O)C23CC4CC(CC(C4)C2)C3)n1
7.3% | CC(C)Oc1ccc(C(=O)N2CCCCC2CCN2CCCCC2)cc1 (centres undefined)
-2.1% | COc1ccc(CNC(=O)c2ccc(N3CCC4(CC3)CC(c3ccc(Cl)cc3)=NO4)c(NC(=O)Cc3ccc(F)cc3)c2)cc1
13.1% | C=C(c1cccc2ccccc12)P(=O)(O)O
12.4% | O=S(=O)(c1cccc(F)c1)N1CCC(Oc2ccc(-n3cnnn3)cc2)CC1
-11.3% | COc1cccc(NC(=S)N(CCCN2CCCC2)Cc2cccn2Cc2ccc(Cl)cc2)c1
-0.9% | CCc1ccc(C(C)NC(=O)C2CCCO2)cc1 (centres undefined)
7.8% | Cc1cc(N2CCOCC2)nc(SCC(=O)OCc2ccccc2)n1
5.0% | CCCCCOC(=O)c1ccc(NC(=O)c2ccco2)cc1
5.4% | O=C(NC1CCCc2c1cnn2-c1ccccc1F)c1ccccn1 (centres undefined)
7.8% | Cc1nc(Cl)c(C(=O)NCCc2ccccc2)c(C)c1[N+](=O)[O-]

Six of the entries above in order of the VDR inh value, lowest first.
VDR inh | smiles
-11.3% | COc1cccc(NC(=S)N(CCCN2CCCC2)Cc2cccn2Cc2ccc(Cl)cc2)c1
-9.1% | Cc1nc2c3cnn(-c4ccc(C)c(C)c4)c3ncn2n1
-4.0% | Cc1ccnc(NC(=O)COC(=O)C23CC4CC(CC(C4)C2)C3)n1
-3.4% | CC(C)OC(=O)c1cn(Cc2c(F)cccc2F)c2sc(-c3ccc(NC(=O)C(C)C)cc3)c(CN(C)Cc3ccccc3)c2c1=O
1.8% | O=C(CCN=C1NS(=O)(=O)c2ccccc21)OCc1cccc(Cl)c1
17.2% | C/C(=N\NC(=O)Cc1cc(=O)[nH][nH]1)c1cccc([N+](=O)[O-])c1

A portion of the library; rates above refer to the full screens.
